Mtb hypoxia inh: PubChem AID 1159583; fluorescence inhibition, % (concentration not given with the values); 300,000 tested, 0.1% active; M. tuberculosis hypoxia-regulated fluorescent reporter, fluorescence;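 active means 35 to 45% if threefold the growth effect, above 45% if 1.5-fold the growth effect; inactive means the rest, general growth blockers included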;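 further: wells of about 50 µL received 100 nL stock; 0% = vehicle wells and 100% = reference inhibitor wells; whole bacteria with a GFP reporter of the hypoxia response; strong numbers were not always called active; many hits fall short of the cut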
RN4220 kill: growth inhibition of S. aureus RN4220, primary screen, OD600. AID 1259311, 2017. 330,000 tested, 0.33% active. 16 h. inhibition, % (no concentration beside the values);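 active means z-score of -3 or lower and OD600 up to 0.18 on both plates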;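 further: plate controls were untreated cells for no effect and reference antibiotic for full effect; stock transfer was 100 nL into about 80 µL; one replicate is shown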
PrP UTR inh: inhibition of PrP 5' UTR reporter expression. 340,000 tested, 0.35% active. cell-based PrP 5' UTR mRNA reporter, plate reader. AID 488862, 2010. inhibition, % (test concentration not listed);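 active means every replicate at 50% or more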;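 further: 0 = median of the neutral control wells; tested in H4 reporter cells; numbers are from one replicate; inactives centre near -14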
BJeLR viability: MLPCN primary cell-based screen for lethality selective to Ras in HRASV12 cells; BJeLR (HRASV12) viability, CellTiter-Glo ATP luminescence, 48 h; reference of the scale not given here; inhibition, % (concentration not given with the values); 300,000 tested, 0.17% active;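 active means replicate mean above 50%; inconclusive means above 50% but judged a plate artefact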;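 further: 50 nL library stock added to about 25 µL; numbers are from one replicate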
ugtP null kill: growth inhibition of ugtP-null S. aureus, primary screen, RN4220 ugtP deletion, OD600; 16 h; some inactives read as strong as hits; growth inhibition, % (concentration not given with the values); 330,000 tested, 0.54% active;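 active means z-score under -3 and OD600 up to 0.15 on both plates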;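 further: plate controls were untreated wells for no effect and antibiotic for full effect; wells of about 80 µL received 100 nL stock; the first replicate is given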
Autofluor counter: counter-screen for toxin protease inhibitors: compound fluorescence; compound autofluorescence counterscreen, microsphere flow cytometry; stronger effect = higher value; fluorescence intensity (concentration not given with the values); 360,000 tested, 3.1% active; AID 624483;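 active means at least 3 SD above the mean of all compounds, about 16000 in these data; inconclusive means too few beads counted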;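 further: 100 nL of 1 mM stock went into each well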
Mtb hypoxia inh growth: recorded beside Mtb hypoxia inh, whose call it bears; growth inhibition, %; measured here: M. tuberculosis growth (absorbance);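 0% = vehicle and 100% = reference antibiotic; read after six days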
Active calls of the source: *; ? = inconclusive; . = no result given.

SMILES	Mtb hypoxia inh	Mtb hypoxia inh growth	RN4220 kill	PrP UTR inh	BJeLR viability	ugtP null kill	Autofluor counter
Cc1cc(C)n2c(SCc3ccc(Cl)cc3Cl)nnc2n1	.	.	11	4	1	-5	2763
CC12CCC(=O)N1C(C(=O)Nc1ccccc1N1CCCC1)CS2 (configuration not stated)	-11	2	4.3	-18	.	9	?
CCOC(=O)C1(CCc2ccccc2)CCN(C(=O)C2CCCO2)CC1 (configuration not stated)	-3	1	-1.7	-24	-10	-4	4064
COc1ccc2[nH]c(=O)c(CN(Cc3cccnc3)C(=O)Nc3ccccc3)cc2c1	-2	-6	4.6	-8	6	7	23007*
CSc1cccc(NC(=O)CSc2ccc(C)cc2)c1	.	.	-1.4	-5	-7	1	4644
Nc1nc(SCC(=O)c2ccc(Br)s2)n[nH]1	3	5	8.1	-1	-3	1	3542
CC(C)SCc1nc2ccccc2[nH]1	.	.	2.2	-22	.	-1	4976
COc1ccc(C(CNC(=O)c2cccc(S(=O)(=O)NCc3ccccc3)c2)N2CCOCC2)cc1 (configuration not stated)	.	.	.	7	5	.	?
CN(C)C(=O)Nc1ccc(F)cc1F	3	4	4.5	-16	0	1	9499
CC(=O)Nc1ccc2c(c1)nc(CN1CCCC1)n2C	4	13	-0.8	-18	6	-3	10695
Cc1cccc(C)c1Nc1nnc(SC/C(O)=C(\C#N)c2nc3ccccc3[nH]2)s1	5	-2	-8.7	-12	3	-11	6927
Cc1cccc(OCC(=O)Nc2ccc3c(c2)nc(CCN2CCC(C)CC2)n3C)c1	5	2	2.3	-18	2	3	2828
COc1ccc(-n2cccc2C=O)cc1OC	1	1	6.1	-10	-3	1	22117*
CCC1(O)CCC2C3CCC4=CC(=O)CCC4C3CCC21CC (configuration not stated)	2	4	6.2	3	.	4	3802
O=C(Cn1cnc2ccccc2c1=O)N1CCN(Cc2ccc3c(c2)OCO3)CC1	17	15	-13	-8	-5	-4	2434
Cn1c(=O)n(C)c2cc(S(=O)(=O)Nc3cc(Cl)ccc3O)ccc21	-6	3	4.0	-23	-4	-12	3529
O=Cc1coc2ccc3ccccc3c2c1=O	13	-6	3.6	-15	-15	19	3818
CCCCCn1c(=O)c(C(=O)Nc2cccc(C)n2)c(O)c2ccccc21	10	4	29	-18	-13	41	3131
CCOC(=O)c1c(C)[nH]c(C(=O)CN2CCN(CC)CC2)c1C	-2	-2	0.7	-7	19	9	4352
CCOc1ccc(NC2=C(Cl)C(=O)N(Cc3ccccc3)C2=O)cc1	12	12	2.3	-31	-3	9	9557
O=C(COC(=O)CCCN1C(=O)c2ccccc2C1=O)Nc1cc(Cl)cc(Cl)c1	3	-1	8.0	-27	1	12	8914
COc1ccc(OC)c(NC(=O)CCn2cccc2)c1	18	17	-3.9	-7	-22	-1	3480
COc1cccc(C(=O)NCCS(=O)(=O)NCCc2ccccc2)c1	.	.	.	-32	10	.	5161
O=C(NCc1ccccc1)N(Cc1cc2cc3c(cc2[nH]c1=O)OCCO3)CC1CCCO1 (configuration not stated)	7	3	-8.9	5	5	-5	3391
O=C(Cn1cnnn1)OCC(=O)c1ccc(Cl)s1	14	2	3.2	-21	-3	-4	22766*

More records follow:
SMILES	Mtb hypoxia inh	Mtb hypoxia inh growth	RN4220 kill	PrP UTR inh	BJeLR viability	ugtP null kill	Autofluor counter
CCOc1ccc(/C(CC)=N/NC(=O)C2(C)CC2(Br)Br)cc1 (configuration not stated)	.	.	.	-23	0	.	2019
Cc1nc2ccccc2c(=O)n1N=Cc1ccccc1Cl	10	-2	13	.	.	3	.
CC(=O)N1CCN(S(=O)(=O)c2cccc(C(=O)N(C)Cc3ccc(C)o3)c2)CC1	2	3	1.4	-18	.	-4	9066
S=c1[nH]nc(Cc2cccs2)n1-c1ccccc1Cl	-4	-6	0.8	-20	-1	-3	2374
O=C(NCCCO)c1ccc(CSc2nc3ccccc3[nH]2)cc1	9	2	4.3	-28	-5	6	4587
CCc1noc(C)c1C(=O)Nc1sc(C(=O)N(C)C)c(C)c1C(=O)OC	6	10	5.2	-8	-9	-6	9153
CC(C)c1nnc(NC(=O)CCC(=O)NCCc2ccccc2)s1	0	9	2.5	-8	-7	6	4147
O=C(CSc1nnnn1C1CCCCC1)NCc1ccccc1	5	3	3.2	-8	5	6	3217
Cc1c(NC(=O)C(C)OC(=O)/C=C/c2ccccc2)c(=O)n(-c2ccccc2)n1C (configuration not stated)	4	9	0.7	-19	1	5	3919
OCC1N=C(c2ccccn2)OC1c1ccccc1 (configuration not stated)	12	0	1.7	-25	-5	3	12309
CCOC(=O)CNc1nc2ccccc2n2c(C)nnc12	0	2	5.8	-16	-6	5	2078
CCOc1ccc(NC(=O)Nc2ccc3c(c2)N(C)C(=O)CS3)cc1	.	.	-3.0	-13	-1	3	5869
COc1ccc(OC)c(CN(CCN2CCOCC2)C(=O)Nc2cccc(Cl)c2)c1	18	6	3.5	-17	-5	8	2392
Brc1cccc(-c2nnc(SCc3ccon3)n2-c2ccccc2)c1	.	.	-0.3	-16	-22	6	5820
C/C=C/c1ccc(OCCN2C(=O)NC(C)(C)C2=O)c(OC)c1	15	1	-1.5	-20	-3	5	7406
CC(C)CNc1nc(Oc2ccc(=O)[nH]n2)nc(N(C)C)n1	6	-7	0.0	-3	10	6	11196
COC(=O)C1=C(c2c(C)noc2C)CC2CCC1N2C(=O)N1CCCC1 (configuration not stated)	14	4	2.1	.	.	5	.
CCN(CC)S(=O)(=O)c1cc(NS(=O)(=O)c2cccc(Cl)c2Cl)ccc1C	3	2	22	9	-13	-3	2090
CCN(Cc1ccc(OC)c(F)c1)C(C)C(=O)Nc1ccc(S(=O)(=O)N2CCCC2)cc1 (configuration not stated)	5	1	2.1	-13	.	5	7178
Cc1ccc(C2C3=C(CC(C)(C)CC3=O)NC3=C2C(=O)c2ccccc23)cc1 (configuration not stated)	13	10	0.5	8	0	-10	2248
O=C(NN=Cc1cccs1)C1CC(=O)N(c2ccccc2)C1 (configuration not stated)	6	6	2.8	.	.	-4	.
O=C(NN=Cc1ccncc1)c1cccc(S(=O)(=O)Nc2ccc(Cl)cc2)c1	3	6	7.7	.	.	7	.
O=C(CN1CCOCC1)NCC(=O)Nc1ccc(Br)cc1C(=O)c1ccccc1	-1	15	0.8	-30	12	-6	10805
O=C(CSc1nnc(-c2ccc(Cl)cc2)n1-c1ccc(Cl)cc1)N/N=C/c1ccco1	.	.	.	-16	7	.	2516
CC1(NC(=O)CCNC(=O)c2ccc(C(C)(C)C)cc2)CCS(=O)(=O)C1 (configuration not stated)	-1	10	2.1	.	.	0	?

Ordered by length of the SMILES (low to high): 3 of the compounds above
SMILES	Mtb hypoxia inh	Mtb hypoxia inh growth	RN4220 kill	PrP UTR inh	BJeLR viability	ugtP null kill	Autofluor counter
CCOC(=O)CNc1nc2ccccc2n2c(C)nnc12	0	2	5.8	-16	-6	5	2078
O=C(CN1CCOCC1)NCC(=O)Nc1ccc(Br)cc1C(=O)c1ccccc1	-1	15	0.8	-30	12	-6	10805
COc1ccc(OC)c(CN(CCN2CCOCC2)C(=O)Nc2cccc(Cl)c2)c1	18	6	3.5	-17	-5	8	2392

Carrying on:
SMILES	Mtb hypoxia inh	Mtb hypoxia inh growth	RN4220 kill	PrP UTR inh	BJeLR viability	ugtP null kill	Autofluor counter
CC(OC(=O)c1ccco1)C(=O)NC1CCCC1 (configuration not stated)	2	3	3.8	-17	-5	5	3935
C/C(=N\N=C\c1ccc(N(C)C)cc1)c1cccc([N+](=O)[O-])c1	.	.	.	-57	4	.	2157
CC1CCCC(C)N1CC(O)COc1c(F)cc(Br)cc1F (configuration not stated)	3	-1	-1.0	0	3	2	4610
CCOC(=O)c1nn(-c2ccc(OCC)cc2)c2nc(CC(C)C)c(C#N)c(=O)n12	-8	1	-4.4	-6	-10	-5	16776*
CCc1nnc(NS(=O)(=O)c2ccc(NC(=O)C(c3ccccc3)c3ccccc3)cc2)s1	11	9	4.0	-27	-6	9	6086
COc1ccc(C(=O)NCC(=O)N2CCN(C(=O)c3ccco3)CC2)cc1[N+](=O)[O-]	0	5	3.0	-1	.	3	4347
COc1ccccc1-c1c(C)oc2c(CN3CCCCC3C)c(O)ccc2c1=O (configuration not stated)	12	3	-2.3	-6	6	0	3551
COc1ccc(C(=O)COC(=O)CCN2C(=O)C3C4CC(C(Br)C4Br)C3C2=O)cc1 (configuration not stated)	1	6	2.2	-8	0	4	3843
O=C(NCc1ccccc1Br)C1CCCO1 (configuration not stated)	12	8	2.9	-1	-2	1	4007
Cn1c(Cn2c(=O)sc3ccccc32)nnc1SCc1cccnc1	.	.	3.7	-47	2	7	5950
C[C@H](NC(=O)OC(C)(C)C)c1nnc(SCC(=O)c2ccc(Cl)cc2)o1	-1	-1	8.9	-7	1	1	4224
O=C(O)C1C2C=CC(C2)C1C(=O)NCc1cccc(Cl)c1 (configuration not stated)	8	15	10.0	-7	-1	14	4000
O=C(c1cc2cc(Cl)ccc2[nH]1)N1CCCCC1	-6	-2	6.5	-12	-2	-2	3193
O=C(Nc1nc(-c2cccnc2)cs1)c1ccccc1Cl	-8	-7	6.6	-4	6	6	4239
CC1CC(C)CN(C(=O)c2ccc(C(=O)c3ccccc3)cc2)C1 (configuration not stated)	12	8	0.9	-1	-8	5	5115
O=C(Nc1nnc(-c2cccs2)o1)c1cccc(F)c1	-1	1	28	-16	-5	18	4899
Cc1ccc2c(N)c(C(=O)N(c3ccccc3)c3ccccc3)sc2n1	9	10	6.4	-20	-9	-4	.
Cc1nc2ccc(S(=O)(=O)NCC(=O)N3CCCC(C)C3)cc2s1 (configuration not stated)	4	8	-14	-45	3	-9	2777
CC(C)(C)C(=O)NC1(C(F)(F)F)NC(=O)N(c2ccccc2F)C1=O (configuration not stated)	-16	-13	5.4	-13	-4	8	6509
Cc1nnc(NCCc2ccccc2)c2ccccc12	.	.	-5.5	-83	4	-2	4391
Cc1ccnc(NC(=O)CSc2ccc3c(c2)OCCO3)c1	.	.	.	-33	11	.	6256
Cc1ccc(O)c(NC(=O)CSc2n[nH]c(C)c2[N+](=O)[O-])c1	2	1	5.0	-7	2	-15	4838
CCc1ccc(OCC(=O)NNC(=O)Cc2c(F)cccc2Cl)cc1	8	7	3.1	-19	-3	7	5407
Cc1ccc(C(=O)NNC(=S)NC(=O)c2ccccc2)cc1	-10	-5	36	-17	3	16	4699
CCCNC(=O)C(CC)NC(=O)c1cccc([N+](=O)[O-])c1 (configuration not stated)	6	4	5.1	-17	.	0	3890
Cc1sc(NC(=O)CSc2nnc(-c3ccc(F)cc3)o2)c(C#N)c1C	-4	4	4.2	-24	0	-19	6399

By substructure: the compounds so far containing an aryl methoxy group.
SMILES	Mtb hypoxia inh	Mtb hypoxia inh growth	RN4220 kill	PrP UTR inh	BJeLR viability	ugtP null kill	Autofluor counter
COc1ccc2[nH]c(=O)c(CN(Cc3cccnc3)C(=O)Nc3ccccc3)cc2c1	-2	-6	4.6	-8	6	7	23007*
COc1ccc(C(CNC(=O)c2cccc(S(=O)(=O)NCc3ccccc3)c2)N2CCOCC2)cc1 (configuration not stated)	.	.	.	7	5	.	?
COc1ccc(-n2cccc2C=O)cc1OC	1	1	6.1	-10	-3	1	22117*
COc1ccc(OC)c(NC(=O)CCn2cccc2)c1	18	17	-3.9	-7	-22	-1	3480
COc1cccc(C(=O)NCCS(=O)(=O)NCCc2ccccc2)c1	.	.	.	-32	10	.	5161
COc1ccc(OC)c(CN(CCN2CCOCC2)C(=O)Nc2cccc(Cl)c2)c1	18	6	3.5	-17	-5	8	2392
C/C=C/c1ccc(OCCN2C(=O)NC(C)(C)C2=O)c(OC)c1	15	1	-1.5	-20	-3	5	7406
CCN(Cc1ccc(OC)c(F)c1)C(C)C(=O)Nc1ccc(S(=O)(=O)N2CCCC2)cc1 (configuration not stated)	5	1	2.1	-13	.	5	7178
COc1ccc(C(=O)NCC(=O)N2CCN(C(=O)c3ccco3)CC2)cc1[N+](=O)[O-]	0	5	3.0	-1	.	3	4347
COc1ccccc1-c1c(C)oc2c(CN3CCCCC3C)c(O)ccc2c1=O (configuration not stated)	12	3	-2.3	-6	6	0	3551
COc1ccc(C(=O)COC(=O)CCN2C(=O)C3C4CC(C(Br)C4Br)C3C2=O)cc1 (configuration not stated)	1	6	2.2	-8	0	4	3843

This is a random part of the collection; 4% or so of the library scored in one or more.
